# Screening results as filed in PubChem BioAssay.
# BJeLR lethal: BJeLR cell viability loss. inhibition, % (concentration not given with the values). BJeLR (HRASV12) viability, CellTiter-Glo ATP luminescence, 48 h; reference of the scale not given here. 300,000 tested, 0.17% active;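 active = replicate mean above 50%; inconclusive = above 50% but judged a plate artefact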;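 also: 50 nL library stock added to about 25 µL; numbers are from one replicate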
# ugtP null kill: kills S. aureus RN4220 lacking UgtP; S. aureus RN4220 ugtP deletion, OD600 growth, 16 h; some inactives read as strong as hits; growth inhibition, % (test concentration not listed); 330,000 tested, 0.54% active; AID 1259309;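 active = z-score under -3 and OD600 up to 0.15 on both plates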;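 also: plate controls were untreated wells for no effect and antibiotic for full effect; wells of about 80 µL received 100 nL stock; the first replicate is given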
# Mtb hypoxia inh: inhibitors of hypoxia-regulated fluorescent reporter in Mycobacterium tuberculosis; M. tuberculosis hypoxia-regulated fluorescent reporter, fluorescence; AID 1159583; 300,000 tested, 0.1% active; fluorescence inhibition, % (concentration not given with the values);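 active = 35 to 45% if threefold the growth effect, above 45% if 1.5-fold the growth effect; inactive = the rest, general growth blockers included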;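 also: wells of about 50 µL received 100 nL stock; 0% = vehicle wells and 100% = reference inhibitor wells; whole bacteria with a GFP reporter of the hypoxia response; strong numbers were not always called active; many hits fall short of the cut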
# PrP 5UTR inh: inhibition of PrP 5' UTR reporter expression; 340,000 tested, 0.35% active; inhibition, % (concentration not given with the values); cell-based PrP 5' UTR mRNA reporter, plate reader; AID 488862;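 active = every replicate at 50% or more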;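 also: 0 = median of the neutral control wells; tested in H4 reporter cells; numbers are from one replicate; inactives centre near -14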
# RN4220 kill: S. aureus RN4220 growth inhibition. AID 1259311. OD600, 16 h. inhibition, % (test concentration not listed). 330,000 tested, 0.33% active;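 active = z-score of -3 or lower and OD600 up to 0.18 on both plates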;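 also: plate controls were untreated cells for no effect and reference antibiotic for full effect; stock transfer was 100 nL into about 80 µL; one replicate is shown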
# Autofluor counter: compound fluorescence in toxin protease inhibitor counterscreen | fluorescence intensity (concentration not given with the values) | compound autofluorescence counterscreen, microsphere flow cytometry; active compounds read high | 360,000 tested, 3.1% active;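 active = at least 3 SD above the mean of all compounds, about 16000 in these data; inconclusive = too few beads counted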;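 also: 100 nL of 1 mM stock went into each well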
# Mtb hypoxia inh growth: recorded beside Mtb hypoxia inh, whose call it bears; growth inhibition, %; measured here: M. tuberculosis growth (absorbance);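 0% = vehicle and 100% = reference antibiotic; read after six days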
# * = called active by the depositor; ? = inconclusive; · = no result given; & = joins results of further samples.
smiles	BJeLR lethal	ugtP null kill	Mtb hypoxia inh	Mtb hypoxia inh growth	PrP 5UTR inh	RN4220 kill	Autofluor counter
CC12CCCCC1=CC(=O)CC2 (stereo unspecified)	·	-2.4	3.1	-4.9	-13.8	2.6	4012
CCc1cccc(-n2c(SCC(=O)c3c(N)n(C4CC4)c(=O)[nH]c3=O)nnc2N2CCOCC2)c1	·	3.0	-4.7	-0.7	2.4	0.9	4098
COc1cccc2c1OC1(C)CC2NC(=O)N1c1cccc(C(=O)N2CCN(c3ccccc3)CC2)c1 (stereo unspecified)	-5.9	10.4	-1.9	10.1	-10.8	5.2	2080
CCn1c(SCc2nc3sc(C(=O)O)c(C)c3c(=O)[nH]2)nc2ccccc21	-4.1	-0.9	5.5	9.7	-26.9	16.0	3413
Cc1cc(OCC(=O)NC(C)c2ccccc2)ccc1[N+](=O)[O-] (stereo unspecified)	-9.7	-0.6	-13.2	-13.0	-10.4	-1.7	2544
O=C(CN1CCN(S(=O)(=O)c2ccc(Cl)s2)CC1)N1CCOCC1	-9.6	2.2	18.2	7.5	-16.4	2.1	4571
Cc1nnc(SCCC(=O)Nc2nc(-c3ccccc3)ns2)s1	·	-11.1	8.2	11.6	-13.9	0.3	16875*
Cc1ccccc1Nc1nc(N)nc(COC(=O)[C@@H](NC(=O)c2ccco2)C(C)C)n1	·	-1.0	2.8	2.4	5.3	0.0	3797
COc1ccc2c(c1)c(=O)oc1cc(OCC(=O)NC3CC3)ccc12	-0.1	5.6	·	·	-22.0	-2.3	4939
CC(=NNc1nc(C)cc(C)n1)c1ccc(Br)cc1	·	0.4	-6.5	4.5	·	1.0	·
Cc1cc(O)c(C(C)C)cc1NC(=O)Nc1cccc2ccccc12	-2.0	8.9	9.1	3.9	-6.6	-0.4	4617
N#CC1=C(S)N(c2ccccc2)C(c2ccc(-c3cc(Cl)ccc3Cl)o2)NC1=O (stereo unspecified)	9.1	6.9	9.9	12.0	-14.1	10.5	2139
CCN1CCN(CC(=O)Nc2ccc(Cl)c(S(=O)(=O)N(C)C)c2)CC1	6.1	6.5	1.1	-1.2	-0.4	3.0	5139
COCCN(C(C)=O)c1nnc(-c2ccccn2)s1	-7.5	8.3	·	·	-20.6	11.0	2521
O=C1CC(C(=O)Nc2nccs2)C(c2ccccc2)O1 (stereo unspecified)	3.0	0.6	-2.0	-1.1	3.4	-0.3	15647
CCCN1CCN(C(=O)c2ccc(-c3ccc([N+](=O)[O-])cc3)o2)CC1	·	3.1	2.6	-2.7	-3.9	1.0	2982
CNC(=S)N(Cc1cc2cc(OC)c(OC)cc2[nH]c1=O)C1CCCC1	2.9	1.7	8.9	0.7	-7.0	0.3	4462
CCC(C)(C)NC(=O)COc1ccc(OCc2ccccc2)cc1	-4.1	7.8	-7.0	2.4	-18.4	-4.6	4276
Cc1[nH]c2ccccc2c(=O)c1SC(F)(F)C(F)C(F)(F)F (stereo unspecified)	-1.8	-9.1	-4.3	10.4	-8.7	5.2	2994
CCN1C(=O)C(CC(=O)Nc2ccc(F)cc2)N(Cc2ccc3c(c2)OCO3)C1=S (stereo unspecified)	4.4	6.4	13.8	10.8	-7.1	-5.5	3135
[O-][n+]1c2ccccc2c2n1CCN=C2c1ccc(Cl)cc1	5.8	2.6	·	·	-25.6	17.0	3795
Cc1ccc(C(=O)Nc2ncc([N+](=O)[O-])s2)cc1	13.4	92.2*	17.8	30.8	71.0*	93.2*	3820
COc1ccc(C)cc1NC(=S)Nc1ccccc1SC	4.7	0.7	9.6	8.5	-10.1	3.2	4375
CC(=NNS(=O)(=O)c1cc(C)ccc1C)c1ccncc1	·	1.3	10.0	3.9	·	3.5	·
O=C(Nc1ccccc1)/C(=C1\CCCN1)[N+](=O)[O-]	-1.2	4.0	7.1	7.2	-10.5	3.9	3814

smiles	BJeLR lethal	ugtP null kill	Mtb hypoxia inh	Mtb hypoxia inh growth	PrP 5UTR inh	RN4220 kill	Autofluor counter
Nc1[nH]c2cc([N+](=O)[O-])ccc2c1-c1ccccn1	-1.5	·	·	·	-17.7	·	7640
CCCCNc1ncnc2sc3c(c12)CCN(CCC)C3	17.5	3.8	2.7	0.8	-10.8	4.4	4495
COc1ccc(C2CC(=O)N3CN(c4ccc(C)c(Cl)c4)CSC3=C2C#N)cc1 (stereo unspecified)	-4.7	-13.0	2.6	5.7	-14.2	-14.7	5405
O=C(Nc1nc2c(F)cc(F)cc2s1)c1ccc([N+](=O)[O-])o1	25.6	57.4	-4.5	5.7	-35.5	-3.3	5742
Cc1ccc(C(=NNc2ncnc3ccccc23)C(=O)O)cc1	·	9.4	-3.8	-0.8	·	2.1	·
Cc1cccc(NC(=O)c2ccc3c(c2)OCCO3)n1	10.3	-3.1	2.8	14.6	-72.1	2.3	6178
NS(=O)(=O)c1ccc(NC(=O)CCc2ccccc2)cc1	-2.8	2.6	10.2	0.5	-12.0	-0.8	13204
O=C(/C=C/c1ccco1)Nc1ccc2nc3n(c(=O)c2c1)CCCC3	-11.7	0.4	6.1	-3.9	-22.0	0.9	3989
Cc1cccc(C)c1NC(=O)CSc1cc(C(=O)c2nccn2C)c2ccccc2n1	8.2	2.6	1.5	-1.2	-27.9	6.6	2594
CS(=O)(=O)c1ccc2nc(NC(=O)c3ccc(Cl)cc3)sc2c1	0.9	·	·	·	-23.6	·	4304
Cc1cccc(Cn2cnc3ccccc32)c1	0.1	-0.1	·	·	-9.7	4.7	3554
CC(=O)c1ccc(NC(=O)c2cnsn2)cc1	-17.4	4.0	9.1	10.8	-25.1	3.7	4400
COc1ccc(CCNC(=O)N2c3ccccc3Sc3ccccc32)cc1	6.5	14.8	·	·	-23.4	-4.3	2831
O=C(/C=C/c1ccccn1)c1cc(Br)ccc1O	3.5	6.3	21.0	5.4	-10.6	9.0	3443
COc1cc(SC)ccc1C(=O)Nc1ncc(C)s1	9.1	7.8	5.5	19.9	74.1*	7.0	3429
COCCCn1c(=O)c2sccc2n(Cc2ccccc2)c1=O	4.2	6.7	-5.0	15.6	-12.8	-5.2	3951
COc1ccccc1C1=NOC(Cn2c(=O)c3c(ncn3C)n(C)c2=O)C1 (stereo unspecified)	4.4	-3.2	7.3	-26.7	-21.1	9.1	·
COc1cc(NC(=O)CC(C)=NNC(=O)Cc2ccccc2)c(OC)cc1Cl	·	5.6	5.5	9.6	·	3.8	·
Cc1ccc(C)c(NC(=O)c2ccccc2NS(=O)(=O)c2cc([N+](=O)[O-])ccc2C)c1	·	57.5	3.0	11.4	-4.3	56.6	2530
C=C1CC(C(=O)NN=Cc2ccc(O)cc2)C1	·	2.5	2.2	7.4	·	4.6	·
CC1(C)C(=O)CCC2(C)C1=CCC1C2C(=O)CC2(C)C1CCC2(O)C(=O)CO (stereo unspecified)	·	11.6	8.6	-5.4	-24.4	6.2	3823
Cc1nc(SCc2ccc(OCCC(C)C)cc2)n[nH]1	5.6	3.8	10.5	7.4	-58.2	17.4	2679
Cc1ccc(NC(=O)CNc2ccccc2N2CCCC2=O)cc1S(=O)(=O)N1CCOCC1	·	8.2	5.8	8.3	-0.9	4.2	?
CC(C)CC(=O)Nc1ccc(C(=O)COC(=O)C2CC(=O)N(Cc3ccccc3)C2)cc1 (stereo unspecified)	·	1.6	4.1	1.5	-2.0	-0.1	2834
CCOc1ccc(S(=O)(=O)N2CCCCC2)cc1NC(=O)CCNC(=O)c1ccco1	·	-0.7	-9.5	-4.4	-4.8	1.1	5962

smiles	BJeLR lethal	ugtP null kill	Mtb hypoxia inh	Mtb hypoxia inh growth	PrP 5UTR inh	RN4220 kill	Autofluor counter
COc1ccc2oc(C(=O)OCC(=O)N3CCN(S(=O)(=O)c4ccc(C)cc4)CC3)c(C)c2c1	-6.2	12.6	10.6	-6.3	-3.6	2.5	5844
Cc1ccc(C)c(NCC(O)c2ccccc2)c1 (stereo unspecified)	13.3	-4.8	8.6	2.9	-20.4	5.6	4489
CC(=NNC(=O)c1cccc(S(=O)(=O)N2CCOCC2)c1)c1ccco1	·	5.1	4.0	14.9	·	3.4	·
CCNC(=S)Nc1ccc(OC(F)(F)F)cc1	3.1	1.1	15.3	6.6	-7.8	-3.1	4416
CCN1CCC(NCC2CCCCC2)CC1	1.2	2.9	8.5	12.9	-11.6	0.1	3519
O=C(CSC1=NS(=O)(=O)c2cc(Cl)ccc2N1)Nc1ccccc1C(F)(F)F	-5.3	8.9	4.6	3.4	-8.4	2.9	?
Nc1ncnc2c1ncn2[C@@H]1O[C@H](CNCc2cccn2-c2nccs2)[C@@H](O)[C@H]1O	·	-2.0	-2.4	1.5	-24.9	2.2	3411
CCCCNC(=O)C1CC(=O)N(CCC(C)C)C1 (stereo unspecified)	0.7	0.4	8.0	-0.4	1.5	-13.0	2965
N#C/C(=C\c1cccc(Oc2ccc(C(F)(F)F)cc2[N+](=O)[O-])c1)c1nc2ccccc2[nH]1	13.6	·	·	·	-11.9	·	2914
CCCSc1ccc(C2C3C(=O)N(CC)C(=O)C3[C@]3(C(=O)OC)CCCCN23)cc1 (stereo partly specified)	·	6.7&47.1	12.5&3.8	4.5&4.5	·	6.7&-1.2	·
COc1ccc(C)cc1NC(=O)NC(C)c1ccncc1 (stereo unspecified)	-0.3	4.9	6.9	1.1	-9.3	3.5	2448
CCOC(=O)C1C2COc3ccccc3C2N2C(=O)N(c3cccc(Cl)c3)C(=O)[C@]12C (stereo partly specified)	·	8.3	4.3	12.3	·	6.2	·
CCOC(=O)C(C)n1cnc2c(cnn2-c2ccc(Cl)cc2)c1=O (stereo unspecified)	4.9	-9.3	1.1	12.9	-43.0	-4.1	2368
CCOC(=O)c1sc(NS(=O)(=O)c2ccccc2)nc1C	1.7	-8.9	-8.1	-0.1	-14.4	-6.4	8457
Cn1c(C(=O)N2CCN(C(=O)c3ccco3)CC2)cc2c(=O)n3ccccc3nc21	-13.7	-7.6	-4.6	9.4	-9.8	-2.9	3425
CCCC(=O)N(c1ccc(OC)cc1)C1C=CS(=O)(=O)C1 (stereo unspecified)	-4.0	11.0	3.7	-0.5	-25.0	4.5	4476
CN(CC(=O)Nc1cccc(F)c1)C(=O)COc1ccc2c(c1)CCC2	·	-4.1	-2.1	3.9	-24.2	6.5	8327
COc1ccc(C2/C=C\CN(S(=O)(=O)/C=C/c3ccccc3)CC(=O)N2Cc2ccc(F)cc2)cc1 (stereo unspecified)	13.3	·	·	·	-17.2	·	2888
Cc1nn(Cc2ccccc2)c(C)c1CCC(=O)O	-9.0	1.3	2.1	3.0	-24.2	3.7	9969
COc1ccc(-n2c(=S)[nH]c3cc(C(=O)N4CCN(c5ccccc5)CC4)ccc3c2=O)cc1	1.3	7.0	-2.4	-10.8	-19.0	0.1	3452
O=C(Nc1ccc(Cl)cc1)c1nc[nH]c1C(=O)NCCCCNC(=O)c1[nH]cnc1C(=O)Nc1ccc(Cl)cc1	·	7.0	8.5	6.3	-4.0	5.0	3507
COc1cc2sc3ccc(C#Cc4ccc(N)cc4)cc3c(=O)c2cc1OC	1.9	-26.2	14.3	9.0	10.2	-2.0	4097
Cc1c(C(=O)Nc2nc3ccccc3[nH]2)oc2ccc(Br)cc12	-1.0	-9.4	7.1	0.1	9.8	10.5	11067
COc1ccc(N(C)S(=O)(=O)c2cccc(C(=O)NCC3CCCO3)c2)cc1 (stereo unspecified)	2.1	4.9	·	·	-3.2	-1.6	3515
CCOc1ccc(CCNC(=O)COC(=O)c2cc(OC)cc(OC)c2)cc1OCC	-17.7	1.8	10.0	4.8	-34.4	9.7	3960
CC(C)CC(CO)Nc1nc(N(C)c2cccc(Cl)c2)c2ncn(C(C)C)c2n1 (stereo unspecified)	·	9.2	9.2	4.9	·	1.0	·

# Looked up by structure from the list above:
smiles	BJeLR lethal	ugtP null kill	Mtb hypoxia inh	Mtb hypoxia inh growth	PrP 5UTR inh	RN4220 kill	Autofluor counter
CC(=NNC(=O)c1cccc(S(=O)(=O)N2CCOCC2)c1)c1ccco1	·	5.1	4.0	14.9	·	3.4	·
CCCC(=O)N(c1ccc(OC)cc1)C1C=CS(=O)(=O)C1 (stereo unspecified)	-4.0	11.0	3.7	-0.5	-25.0	4.5	4476
